Source: PubChem BioAssay (National Center for Advancing Translational Sciences (NCATS))
nsP2pro inh = CHIKV nsP2 protease inhibition, primary qHTS. FRET peptide cleavage, nsP2pro, fluorescence 1 h. Potency, µM (top dose mostly 24.9 µM), without a hit: top-dose activity change, negative = inhibition, hits mostly inhibitors. 31,000 tested, 1.1% active. AID 1964107; active means well fitted inhibition curve with a large enough effect; inconclusive means small, poorly fitted or top-dose-only effect; inactive means no such curve, though single readings can be large or run the other way; further: nearly all actives have a fitted effect of over 60% in size; a reference inhibitor and vehicle were the controls
Starred values were filed as active, the others as inactive; i = inactive; ? = inconclusive; [ ] = another dose, or the depositor's remark. On the % scale 0 is the no-effect control and ±100 the full control effect; potency means the concentration at half of the fitted maximal effect. Not all compounds are listed. The share of hits here may be higher or lower than overall.

SMILES	nsP2pro inh
COC(=O)c1c(C)sc(-c2c(-c3ccc(F)cc3)[nH]c3[nH]c(=O)[nH]c(=O)c23)c1O	16%
CCCn1c(C)cnc1CC1CCN(C(=O)NCc2ccc(OC)cc2)C1 (centres undefined)	5%
CC1CC(=O)[C@]2(O)C(C(=O)OCCc3ccc(O)c(O)c3)=CO[C@@H](O[C@@H]3O[C@H](CO)[C@@H](O)[C@H](O)[C@H]3O)[C@H]12 (some centres undefined)	3.8µM*
CN1CC(=O)N(CC(=O)N[C@@H]2COCC[C@@H]2OCc2cscn2)C1=O	5%
COCCN1Cc2ccc(NCc3ccccc3)nc2C(C)(C(=O)Nc2cccnc2)C1 (centres undefined)	5%[39.2 µM]
COc1cc(NC(=O)C(OC(=O)CNC(=O)c2ccccc2)c2ccccc2)cc(OC)c1 (centres undefined)	-3%
Cc1nc(-c2ccc(Cl)cc2)sc1CCNC(=O)C(=O)Nc1ccc2c(c1)OCO2	-21%
COc1cccc(-c2cn3c(n2)sc2cc(C(=O)NCCc4ccccc4)ccc23)c1	-14%
Cc1noc(C)c1[S+](=O)([O-])N1CCCC1C(=O)N1CCC(N2CCCC2=O)CC1 (centres undefined)	0%
CCOc1ccccc1-c1nnc2n1N=C(c1cc(OC)ccc1OC)CS2	1%
COc1ccc(C)cc1NC(=O)C(OC(=O)CNC(=O)c1ccccc1)c1ccccc1 (centres undefined)	2%
CC(C)C[C@H](CO)Nc1nc(S[C@@H](C)c2ccccc2)nc2nc(N)sc12	25%
COc1ccc(C2(O)c3ccccc3NC(=O)C2O)cc1 (centres undefined)	?
N#Cc1ccc(-c2ccc(-c3nc4ccccc4c(=O)[nH]3)o2)cc1	1%
CCOc1ccc(C(=O)c2cn(CC(=O)Nc3ccc(OC)cc3)c3cc4c(cc3c2=O)OCCO4)cc1	-9%
CC(=O)Nc1c(I)c(NC(C)=O)c(I)c(C(=O)O)c1I	-1%
COc1ccc2nc(SCc3ncc(C)c(OC)c3C)[nH]c2c1	18%
CCOC(=O)C1CCN(CCC(=O)Nc2ccccc2OC)CC1	?
O=C(/C=C/c1ccc2ccccc2n1)c1ccncc1	?
Cc1cc(C)nc(NC(=S)N2CCN(c3cc(C(F)(F)F)nc4ccccc34)CC2)c1	-13%
O=C1Nc2ccccc2/C1=C/c1ccc[nH]1	5%
Cc1oc(-c2ccc(C(=O)NC(C)c3ccccc3)cc2)nc1CS(=O)(=O)c1ccccc1 (centres undefined)	-12%
O=C(COc1ccccc1Cl)Nc1ccc(OCc2cc(=O)n3ccsc3n2)cc1	-6%
O=C(Cc1ccc(F)cc1)NCCc1csc2nc(-c3ccccc3F)nn12	-17%
Cc1ccc(NS(=O)(=O)c2cn(C)c(C)n2)c(Br)c1	-24%

An excerpt from above in order of SMILES length, high to low.
SMILES	nsP2pro inh
COC(=O)c1c(C)sc(-c2c(-c3ccc(F)cc3)[nH]c3[nH]c(=O)[nH]c(=O)c23)c1O	16%
COc1ccc(C)cc1NC(=O)C(OC(=O)CNC(=O)c1ccccc1)c1ccccc1 (centres undefined)	2%
O=C(COc1ccccc1Cl)Nc1ccc(OCc2cc(=O)n3ccsc3n2)cc1	-6%
CCCn1c(C)cnc1CC1CCN(C(=O)NCc2ccc(OC)cc2)C1 (centres undefined)	5%
O=C(/C=C/c1ccc2ccccc2n1)c1ccncc1	?

(list continues)
SMILES	nsP2pro inh
COc1ccc(-c2cnc3ccc(NCc4ccc(S(N)(=O)=O)cc4)nn23)cc1OC	75%[activator]
O=C(O)c1ccccn1	7%
Nc1nc2ncc(CNc3ccc(C(=O)N[C@@H](CCC(=O)O)C(=O)O)cc3)nc2c(=O)[nH]1	?
CO[C@H]1/C=C/C=C/C=C/C[C@H](OC(=O)[C@@H](C)NC(=O)C2CCCCC2)[C@H](C)[C@@H](O)/C(C)=C/CCc2cc(O)cc(c2)NC(=O)C1	?
CCN(Cc1nc(-c2ccc(OC)cc2)oc1C)S(=O)(=O)c1ccc(Cl)cc1	-12%
CCOC(=O)C1CCN(C(=O)C(C)(C)NC(=O)Nc2ccc(Cl)cc2Cl)CC1	i
Cn1ccnc1CN1C(=O)CO[C@H]2CN(C(=O)c3cnccn3)C[C@H]21	-4%[39.2 µM]
OCC#CCSc1nnc(-c2cccc3ccccc23)o1	-5%
O=C(N[C@@H]1CCCc2c1cnn2-c1ccc(F)cc1F)c1ccccn1	16%
CC(=O)N[C@@H](Cc1ccc(O)cc1)C(=O)O	-4%
O=C(NCc1nnc(-c2cc3ccccc3[nH]2)o1)c1ccccc1	i
CCCC(=O)Nc1ccc(-c2nc3ncccc3o2)cc1C	-7%
Cc1ccc(S(=O)(=O)c2cn(C)c3cc(N4CCN(C)CC4)c(F)cc3c2=O)cc1	-5%
C=C[C@H]1[C@H](O[C@@H]2O[C@H](CO)[C@@H](O)[C@H](O)[C@H]2O)OC=C(C(=O)OC)[C@H]1C/C=C(/C=O)[C@@H]1C(C(=O)OC)=CO[C@@H](O[C@@H]2O[C@H](CO)[C@@H](O)[C@H](O)[C@H]2O)[C@@H]1C=C	3%[10 µM]
Cn1ncc(Cl)c1C1N=C(Nc2nc3ccccc3o2)NC2=C1C(=O)CCC2 (centres undefined)	i
CCOc1ccccc1NC(=O)C1=C(C)Nc2ncnn2C1c1sccc1C (centres undefined)	-15%
C[C@@]1(c2cc(-c3cncnc3)c(F)cc2F)CCSC(N)=N1	27%
COc1ccc(N2CC(NC(=O)COc3ccc4ccccc4c3)CC2=O)cc1OC (centres undefined)	-1%
O=C(Cn1ncc2c3ccccc3n(Cc3ccccc3F)c2c1=O)N1CCCCCC1	-13%
CCn1nc(C(=O)O)c(=O)c2cc3c(cc21)OCO3	-1%
CC(=O)N1CCC(CC(=O)N2C[C@@H](Oc3ccccc3)C[C@H]2C(=O)N2CCOCC2)CC1	-10%
CCOc1ccccc1C(=O)NCc1coc(-c2ccc(OC(F)F)c(OC(C)C)c2)n1	-7%
CCN1CCN(C(=O)c2ccc3c(c2)N(Cc2c(F)cccc2Cl)C(=O)c2ccccc2S3)CC1	15%
Cc1ccc(C)c(CN2C(=O)c3ccccc3S(=O)(=O)c3ccc(C(=O)Nc4ccccc4C(F)(F)F)cc32)c1	?
Cc1cc(C)cc(-n2ccn3c(CC(C)(C)CC(=O)O)nnc3c2=O)c1	-9%

The closing six records of the section before open the next one.
SMILES	nsP2pro inh
CCn1nc(C(=O)O)c(=O)c2cc3c(cc21)OCO3	-1%
CC(=O)N1CCC(CC(=O)N2C[C@@H](Oc3ccccc3)C[C@H]2C(=O)N2CCOCC2)CC1	-10%
CCOc1ccccc1C(=O)NCc1coc(-c2ccc(OC(F)F)c(OC(C)C)c2)n1	-7%
CCN1CCN(C(=O)c2ccc3c(c2)N(Cc2c(F)cccc2Cl)C(=O)c2ccccc2S3)CC1	15%
Cc1ccc(C)c(CN2C(=O)c3ccccc3S(=O)(=O)c3ccc(C(=O)Nc4ccccc4C(F)(F)F)cc32)c1	?
Cc1cc(C)cc(-n2ccn3c(CC(C)(C)CC(=O)O)nnc3c2=O)c1	-9%
C[C@]12CC[C@@H]3c4ccc(O)cc4CC[C@H]3[C@@H]1C[C@@H](O[C@@H]1O[C@H](C(=O)O)[C@@H](O)[C@H](O)[C@H]1O)[C@@H]2O	31%
CC(C)(C)OC(=O)N1CCC(c2c(C(=O)N3CCN(c4ccccn4)CC3)cnn2-c2ccc(F)cc2F)CC1	-13%
Cn1cc(-c2[nH]c3cc(NC(=O)[C@H](N)C4CCCCC4)cc4c3c2C=NNC4=O)cn1	100%[activator]
CC(C)C1(OO)C=C2C(=O)CC3C(C)(C(=O)O)CCCC3(C)C2CC1 (centres undefined)	7%
CCC(Oc1ccccc1F)C(=O)N1CCC(c2nc3ccccc3s2)CC1 (centres undefined)	-2%
CN1C[C@H](C(=O)Nc2ccncn2)C[C@H]1c1cccc(C(F)(F)F)c1	i
COC1(CC(C)C)NC(=O)C(O)(Cc2ccccc2)NC1=O (centres undefined)	0%
Cn1nccc1CN1CCn2c(nnc2C2CCCNC2)C1 (centres undefined)	?
Cc1ccc2oc(-c3cc(NC(=O)c4ccc5c(c4)OCCO5)cc(C)c3O)nc2c1	-22%
Cc1ccnc(NC(=S)NCCN(C)c2cccc(C(F)(F)F)c2)c1	-1%
COc1cccc(CNC(=O)c2ccc(CS(=O)c3ccccc3)o2)c1 (centres undefined)	-31%
O=C(OCC#CCSc1nnc(-c2cccc3ccccc23)o1)c1ccc(F)c(F)c1	-1%
CCn1c2c(c(=O)n3ncc(C(=O)N4CCN(c5ccc(C(C)=O)cc5)CC4)c13)CN(Cc1ccc(OC)cc1)CC2	-19%
Cc1ccc(CNC(=O)c2cc(=O)c3cc(C)cc(C)c3o2)cc1	-22%
CC(Oc1ccccc1)C(=O)N[C@@H]1C(=O)N2[C@@H]1SC(C)(C)[C@@H]2C(=O)O (some centres undefined)	-4%
Cc1cc(C[C@@H]2COC[C@@H]2NC(=O)c2ccc(Oc3ccccc3)o2)on1	-32%
Cc1ccc(-n2nc(C)c([C@H]3C=C[C@@H](OC(=O)N[C@H](C)c4ccccc4)C3)c2C)cc1Cl	i
CCOC(=O)c1c(C)[nH]c(C)c1S(=O)(=O)NCC(=O)N1CCN(c2ccccc2OC)CC1	-15%
Cc1ccc(OCCn2c(CCNC(=O)c3ccc(C#N)cc3)nc3ccccc32)cc1	-12%
CS(=O)(=O)c1ccc(-c2csc(N3CCC(C(N)=O)CC3)n2)cc1	i
Cc1cc(C)nc(NC(=S)N2CCN(c3cccc(OC(F)(F)F)c3)CC2)c1	-7%
Cc1oc(-c2ccc(C(=O)NCCCOC(C)C)cc2)nc1CS(=O)(=O)c1ccccc1	-18%
COc1ccc(CNC(=O)C2CCN(Cc3ccccc3-c3ccccc3F)CC2)cc1	3%
O=C(c1nc(-c2ccc(Cl)cc2)n2c1CCCCC2)N1CCN(c2ccccc2)CC1	-4%
CCS(=O)(=O)N1CCC(C(=O)Nc2ccc(S(=O)(=O)Nc3nccs3)cc2)CC1	1%
(cont.)
SMILES	nsP2pro inh
Cc1ccc(CNc2ccc(N3CCN(C)CC3)cc2)cc1	-7%
CCCNC(=O)c1c(-c2ccccc2)cc(=O)n2c1CCC2	-3%
CC(=O)OCC(=O)O[C@@H]1[C@H]2[C@@H](OC(=O)c3ccccc3)[C@@H](C)C[C@]2(O)[C@H](OC(C)=O)C2(C)[C@H]3CC(C)(C)C(=O)[C@@H]3CC1(OC(C)=O)[C@@H]2OC(C)=O (some centres undefined)	5%[10 µM]
c1ccc(OCc2noc(-c3ccc(NC4CCSC4)nc3)n2)cc1 (centres undefined)	5%
O=C(CSc1nc2c(c(=O)[nH]1)CN(Cc1ccc3c(c1)OCO3)CC2)Nc1ccccc1Cl	-15%
CN(C)c1nc(N(C)C)nc(N(C)C)n1	-4%
NC(=O)C1CCN(S(=O)(=O)c2cc3c(cc2Cl)NC(=O)CO3)CC1	-5%
Cc1noc(C)c1Cc1ccc(C(=O)N2CCCCCCNC(=O)[C@@H]3CCCC[C@@H]32)o1	-12%
COc1ccc(NC(=O)CN2C(=O)COc3ccc(S(=O)(=O)N4CCCCCC4)cc32)cc1	-14%
Cc1ccc(NC(=O)CN2CCN(C3CCCCC3)C(=O)C2=O)cc1C	-20%
C#C[C@]1(O)CC[C@H]2[C@@H]3CCC4=CC(=O)CCC4=C3C=C[C@@]21CC	?
COCCn1c(CNC(=O)c2cccc(N(C)C)c2)nc2cccnc21	-7%
O=C(NCc1nnc2n1C(C(=O)N1CCCC1)CC2)Nc1cccnc1 (centres undefined)	-20%
COc1ccc(CNC(=O)O[C@H]2COCCN(c3nc4ccccc4o3)C2)cc1	-8%[39.2 µM]
CCCn1cnc2c1CN(C(=O)c1ccc(F)cc1)[C@H](C(=O)OC)C2	?
Cc1ccc(CC(=O)Nc2nc(-c3ccc4c(c3)CCN4C(=O)c3ccccc3C)c(C)s2)cc1C	-3%
COc1cc2nc(NC(=O)c3ccc(S(=O)(=O)N4CCCC4)cc3)sc2cc1OC	-15%
CCC(=O)N(C1CCOCC1)C1CCN(Cc2ccc(SC)cc2)CC1	4%
CC(=O)c1cccc(NC(=O)C2CCN(S(=O)(=O)c3ccccc3)CC2)c1	-15%
COCC(=O)N[C@H]1CCN(C(=O)COC)[C@H](C(=O)N[C@H](Cc2c[nH]c3ccccc23)C(N)=O)C1	1%
C=C1CC23CC1CCC2C12OC(=O)C(C)(C(O)C(O)C1O)C2C3C(=O)O (centres undefined)	?
COc1ccc(CC(=O)N2C[C@@H](C(=O)O)[C@H](c3ccccc3)C2)c(OC)c1	0%
COc1cc(NC(=O)N[C@H]2CO[C@H]3[C@@H]2OC[C@@H]3Nc2nccc(-c3cccs3)n2)cc(OC)c1	-9%
CCOc1ccc(CNC(=O)c2cnc(SC)nc2CC)cc1	-27%
O=C(C1CCN([S+](=O)([O-])c2cccs2)C1)N1CCC(c2nc3ncccc3[nH]2)CC1 (centres undefined)	-1%
Following part:
SMILES	nsP2pro inh
CCCC(=O)Nc1ccccc1OCc1cc(=O)n2cc(C)ccc2n1	-20%
CCCCN(C)C(=O)Cn1nc(-c2cncnc2)ccc1=O	-3%
NC(=O)[C@H]1CCCCc2c1[nH]c1ccc(Cl)cc21	-7%[10 µM]
Cc1cc(Nc2ncnc3ccc(-c4ccc(CNCCS(C)(=O)=O)o4)cc23)ccc1Oc1ccn2ncnc2c1	1.2µM*
CC(C)C[C@H]1NC(=O)[C@@H]2C[C@@H](NC(=O)CS(=O)(=O)c3ccccc3)CCN2C1=O	4%[39.2 µM]
CC1=C(C(=O)OC(C)C)C(c2ccccc2Cl)CC(=O)N1Cc1c(F)cccc1F (centres undefined)	2%
O=[S+]1([O-])NC2(CCCN(Cc3ccsc3)C2)CNc2ccccc21 (centres undefined)	i
